# Compound activity as filed in PubChem BioAssay.
# MT1-MMP act inh = blocks activation of human MT1-MMP; P50281; HT1080 RFP-PRO-GFP cells, GFP/RFP ratio fluorescence, overnight; percent of plate control window, DMSO zero; GFP/RFP ratio change, % at 20 µM; 360,000 tested, 0.061% active;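 active = GFP/RFP ratio change of at least 30% with cell ATP level not reduced by more than half and red fluorescence within 50% of control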; note: strong numbers were not always called active
#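 Assay system – RFP-PRO-GFP reporter HT1080 cells · Compound dosing – single dose of 20 µM compound, 1% DMSO final · Incubation – overnight compound exposure at 37 °C · Measure – GFP/RFP fluorescence ratio · Benchmarks – DMSO wells and RFP-L50D-GFP cells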
# PABP FP inh = blocks human PABP binding to poly(A) RNA; P11940; inhibition, % at 35 µM; 290,000 tested, 1% active; fluorescence polarization; AID 2014;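 active = 50% or more with normal probe brightness, or confirmed in later tests; inconclusive = above 50% with abnormal brightness, or retests that disagree; inactive = below 50% or failed in later tests; about a fifth of its hits are not listed in these tables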;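 note: calls also rest on retests at 20 µM and on dose response follow-up; controls were probe without protein and protein plus probe with vehicle; some compounds called inactive have numbers as strong as hits; many hits fall short of the cut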
# CSC inhib = cancer stem cell inhibition | inhibition, % at 7.5 µM | AID 2717 | 300,000 tested, 1.1% active | cancer stem cell-like cells viability, luminescence;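 active = mean at 75% or more and at least half the replicates too; inconclusive = mean and replicates disagree; tested in HMLE shEcad cells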;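 note: 0% = median of negative and 100% = median of positive control wells; the first replicate is given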
# eIF4H FP inh = inhibitors of RNA binding by human eIF4H. Q15056. eIF4H fluorescence polarization binding assay. inhibition, % at 35 µM. 290,000 tested, 0.94% active. AID 2012;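 active = 50% or more with normal probe brightness, or confirmed in later tests; inconclusive = above 50% with abnormal brightness, or retests that disagree; inactive = below 50% or failed in later tests; about a fifth of its hits are not listed in these tables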;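 note: calls also rest on retests at 20 µM and on dose response follow-up; 0% = protein and probe with vehicle and 100% = probe without protein; strong numbers were not always called active; many hits fall short of the cut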
# Rce1 inhib = inhibitors of yeast Ras-converting enzyme; Q03530; yeast membranes, quenched prenylated peptide cleavage fluorescence; calls only; 290,000 tested, 0.27% active; AID 2563;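 active = fall in fluorescence gain of 50% or more versus controls, with final raw signal at or below 3038400; inconclusive = same 50% fall but final raw signal above 3038400; inactive = fall in fluorescence gain under 50%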;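 note: plate controls were neutral control wells for no effect and wells lacking membranes for full effect; tested at 10 µM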
# Target sequence (Q03530 whole entry, looked up): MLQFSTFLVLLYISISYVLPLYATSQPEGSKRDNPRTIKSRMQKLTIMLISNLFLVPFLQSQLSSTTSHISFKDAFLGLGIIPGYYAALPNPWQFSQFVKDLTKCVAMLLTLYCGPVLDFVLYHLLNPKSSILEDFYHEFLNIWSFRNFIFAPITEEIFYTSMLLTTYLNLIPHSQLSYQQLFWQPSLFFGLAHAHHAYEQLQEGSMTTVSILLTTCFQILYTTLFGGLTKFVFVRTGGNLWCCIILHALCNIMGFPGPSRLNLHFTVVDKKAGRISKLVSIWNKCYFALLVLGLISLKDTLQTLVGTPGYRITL
# HIV Env fusion = inhibitors of HIV Env-mediated cell fusion. HeLa-JRFL Env/CEM21 cell fusion, luciferase. inhibition, % at 12.3 µM. 360,000 tested, 1.1% active;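 active = mean replicate inhibition score of at least 50 and every replicate individually at or above 50; inconclusive = only one of the two criteria met; inactive = mean below 50 and not all replicates reaching 50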;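 note: 0% = plate neutral controls and 100% = maraviroc near 300 nM; one replicate is shown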
# UUG fidelity = modulators of start codon recognition fidelity in yeast | S. cerevisiae UUG-firefly luciferase reporter, luminescence/redox ratio | activity score, % at 18.7 µM | 350,000 tested, 0.13% active;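 active = replicate mean at a twofold rise or more, about +100% in these data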;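 note: firefly luciferase made from a UUG start codon reports start codon fidelity; reporter light over untreated wells divided by growth signal over untreated wells; some hits fall short of that in this replicate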
# eIF4H FP inh retest = further read-out of eIF4H FP inh, marked with its call; inhibition, %; compound at 20 µM; confirmation average;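 mean of two retest wells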
# PABP FP inh retest = further read-out of PABP FP inh, marked with its call; inhibition, %; compound at 20 µM; confirmation repeats;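 mean of two retest wells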
# MT1-MMP act inh RFP = also measured in MT1-MMP act inh; calls as there; RFP signal change, %; measured here: RFP expression control read;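 0 = vehicle wells; hits needed this value within 50% of zero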
# Active calls of the source: *; i = inactive; ? = inconclusive; · = no result given; & = joins results of further samples.
SMILES,MT1-MMP act inh,MT1-MMP act inh RFP,PABP FP inh,CSC inhib,eIF4H FP inh,Rce1 inhib,HIV Env fusion,UUG fidelity,others
COc1ccc(OC)c(NC(=O)CSc2nnnn2-c2ccc3c(c2)OCO3)c1,2,-4,0,-5,-9,i,·,-16,
CN(CCC1CCOCC1)Cc1nc(Cc2ccccc2F)no1,-3,-2,-7,-2,-7,i,-7,9,
C/C(CC(=O)Nc1ccc(Cl)c(C(F)(F)F)c1)=N\NC(=O)c1cnccn1,-3,2,-14,-7,-11,i,·,-18,
COc1cc2c(cc1OC)CN(C(=O)CN1C(=O)NC3(CCC(C)CC3)C1=O)CC2 (centres undefined),7,-1,·,·,·,·,0,-10,
Cc1ccccc1CC(=O)Nc1ccc(S(=O)(=O)N2CCOCC2)cc1,-3,1,-11,4,-4,i,-1,5,
COc1cccc(NC(=O)c2ccc(C(=O)c3ccccc3)o2)c1,2,-4,-13,-1,2,i,-19,-3,
COc1ccc(N2CCN(c3cc(C(=O)NC4CCCCC4)ncn3)CC2)cc1OC,6,-11,·,·,·,·,17,-9,
COc1cc(OC)cc(C(=O)NCC(=O)OCC(=O)Nc2cc(S(C)(=O)=O)ccc2Cl)c1,4,-2,8,-9,-2,i,-3,-11,
CC(C)(C)OC(=O)C[C@@H]1C/C=C\C[C@@H](CC(=O)N[C@H](CO)Cc2ccccc2)C(=O)NC[C@H](c2ccccc2)OC1=O,-2,-2,·,·,·,·,37,-16,
CCCCCCCCCC(=O)N1CCN(c2cc3c(cc2F)c(=O)c(C(=O)O)cn3CC)CC1,-3,-19,11,-11,9,i,9,-5,
CC1CC(C)CN(C(=O)CCNC(=O)Cn2ccc3ccccc3c2=O)C1 (centres undefined),-3,0,18,5,1,i,0,-20,
O=C(O)c1ccc(CN2C[C@@H](CO)O[C@@H](n3cnc4c(NCc5ccco5)ncnc43)C2)cc1,-4,7,·,·,·,·,8,-9,
Cc1ccccc1OCC(=O)N/N=C/C=C/c1ccccc1,-6,-1,-7,7,4,i,-19,·,
CCCC12CN(C(=O)c3ccc([N+](=O)[O-])cc3)CC(C)(CN(C(=O)c3ccc([N+](=O)[O-])cc3)C1)C2=O,-2,-5,-6,-6,-7,i,-5,8,
Cc1cc(C)nc(SCc2cc(=O)c(OC(=O)c3cc([N+](=O)[O-])ccc3Cl)co2)n1,4,2,30,1,10,i,2,·,

# Grouped by structure, the compounds so far with a nitro group on carbon
SMILES,MT1-MMP act inh,MT1-MMP act inh RFP,PABP FP inh,CSC inhib,eIF4H FP inh,Rce1 inhib,HIV Env fusion,UUG fidelity,others
CCCC12CN(C(=O)c3ccc([N+](=O)[O-])cc3)CC(C)(CN(C(=O)c3ccc([N+](=O)[O-])cc3)C1)C2=O,-2,-5,-6,-6,-7,i,-5,8,
Cc1cc(C)nc(SCc2cc(=O)c(OC(=O)c3cc([N+](=O)[O-])ccc3Cl)co2)n1,4,2,30,1,10,i,2,·,

# Next section
SMILES,MT1-MMP act inh,MT1-MMP act inh RFP,PABP FP inh,CSC inhib,eIF4H FP inh,Rce1 inhib,HIV Env fusion,UUG fidelity,others
COc1ccc(/C=C/C(=O)c2ccc(NS(=O)(=O)c3ccc(C)cc3)cc2)cc1O,8,-23,8,100*,5,i,-50,·,
CN(C)/C=N/c1sc2c(c1C#N)CC(C)(C)NC2(C)C,-3,2,-10,-14,-2,i,1,-11,
O=C(COC(=O)C1CCCC1)Nc1ncc(Cl)cc1Cl,-2,7,·,-10,·,i,18,-13,
O=C(Nc1cccc(NC(=O)c2cccs2)c1)c1ccc(Br)o1,2,1,13,-6,2,i,7,-14,
O=C(CN1CCCc2ccccc21)Nc1cccc(S(=O)(=O)N2CCCC2)c1,-1,-2,·,·,·,·,10,-1,
O=C(CN1C(=O)/C(=C/c2ccccc2)SC1=S)NNC(=O)c1ccccc1O,1,4,-2,-10,4,i,-4,·,
CC(=O)c1cccc(NC(=O)CCNC(=O)c2cccc(C)c2)c1,2,3,0,-7,1,i,-22,-24,
COc1ccc(Nc2ncnc3sc(-c4ccccc4)cc23)cc1,7,-1,-7,36,-1,i,-32,-21,
Cn1c(CNC(=O)CNC(=O)c2ccc(F)cc2)cc(=O)n(C)c1=O,-2,3,-6,10,6,i,-10,3,
Cc1cc(C)n(C(=O)Cn2nc([N+](=O)[O-])c(Br)c2C)n1,2,2,-5,-12,-3,i,8,·,
C[C@@H]1CN([C@H](C)CO)S(=O)(=O)c2ccc(C3=CCCCC3)cc2O[C@H]1CN(C)C(=O)Cc1cccnc1,-3,-3,·,·,·,·,-69,-16&-10&1,
CN(c1ccccc1)c1nc(N)c([N+](=O)[O-])c(N2CCCC2)n1,2,0,-11,-12,4,i,-29,3,
Cc1cc(S(=O)(=O)Nc2ccc(C(=O)N3CCN(c4ccccc4O)CC3)cc2)ccc1F,5,-3,2,3,-13,i,36,15,
CCN(CC)c1ccc(N2C(=O)CSC2=S)cc1,43,58,15,28,62*,i,16,-18,eIF4H FP inh retest=78*;PABP FP inh retest=45
CCOC(=O)c1c(C)[nH]c(C)c1C(=O)CSc1nnc(-c2cc(OC)c(OC)c(OC)c2)o1,4,0,0,-6,0,i,-50,-15,

# Overlap with the part before: 2 entries, followed by the next part.
SMILES,MT1-MMP act inh,MT1-MMP act inh RFP,PABP FP inh,CSC inhib,eIF4H FP inh,Rce1 inhib,HIV Env fusion,UUG fidelity,others
CCN(CC)c1ccc(N2C(=O)CSC2=S)cc1,43,58,15,28,62*,i,16,-18,eIF4H FP inh retest=78*;PABP FP inh retest=45
CCOC(=O)c1c(C)[nH]c(C)c1C(=O)CSc1nnc(-c2cc(OC)c(OC)c(OC)c2)o1,4,0,0,-6,0,i,-50,-15,
CCOc1ccc(CN2CCN(CC3CC3)CC2CCO)cc1 (centres undefined),4,4,-7,-15,-10,i,-11,-14,
O=C(c1ccc(Cl)c(S(=O)(=O)N2CCCC2)c1)N1CCCC(C(F)(F)F)C1 (centres undefined),2,-3,·,5,·,i,-9,-21,
O=c1oc2ccccc2n1Cc1cccc(Cl)c1,0,-1,3,-5,2,i,-188,·,
Cc1c(C=O)c(Cl)n(C)c(=O)c1C#N,-13,4,4,3,?,i,-14,·,
O=C(NCc1ccncc1)c1cc(F)c(F)cc1Cl,3,3,9,-3,3,i,-56,-14,
CC(C)(C)C(=O)N1CCC(O)(CS(=O)(=O)Cc2ccccc2Cl)CC1,-2,5,-4,-14,-6,i,1,-20,
COc1ccc(-n2nc3c(c2NC(=O)C(C)C)CSC3)cc1,0,1,-5,1,-8,i,-9,-22,
O=C(Nc1cccc(N2C(=O)C3CCCCC3C2=O)c1)c1ccccc1 (centres undefined),-1,-5,-7,-4,-11,i,-19,17,
CN1CCN(NC(=O)C2CC2)CC1,9,3,1,-7,-5,i,3,-24,
O=C1CCCN1CCC1CCN(C2CC(=O)N(c3ccc(Cl)cc3)C2=O)CC1 (centres undefined),-9,-5,-5,-9,-4,i,·,-15,
CCC(C)NC(=O)/C(=C/c1ccco1)c1ccccc1 (centres undefined),-9,-1,-11,·,6,i,·,9,
O=C(OCC(=O)N1CCCC1=O)c1nc(Cl)ccc1Cl,-1,1,·,-2,·,i,·,·,
CCN(CC)CCNCc1ccc(OCc2ccc(Cl)nc2)c(OC)c1,8,7,5,24,6,i,-8,·,
COc1ccc(CN2C3CCCC2CC(NC(=O)c2cccc(F)c2)C3)cc1 (centres undefined),9,7,0,35,0,i,-1,-2,
Cc1ccc(C(=O)n2ncn(C)c2=S)cc1,2,2,-4,·,-6,i,5,·,
COP(=O)(OC)C(Nc1ccc(C)cc1)c1ccc([N+](=O)[O-])cc1 (centres undefined),2,5,7,-10,-9,i,·,-17,
CC(C)(C)c1ccc(O)c(N)c1,·,·,-3,-7,-2,i,·,·,
CNc1nc(NN)nc(Nc2ccccc2)n1,6,6,-8,-1,0,i,5,-27,
O=C(NC1CCSC1=O)c1cccc(C(=O)NC2CCSC2=O)c1 (centres undefined),1,6,-1,0,9,i,·,-3,
Cc1[nH]c2ccccc2c1C(=O)CSc1nnc(C2CC2)o1,-5,-2,·,·,·,·,-5,-8,
NC(=O)CSc1cn(Cc2cccc(F)c2)c2ccccc12,-1,0,2,·,9,i,14,-22,
COc1ccc(/C=C(\C#N)c2nc3ccccc3[nH]2)cc1O,7,-1,8,·,-7,i,-93,0,
CN1C=CC=C/C1=C1\SC(=S)N(CC(=O)O)C1=O,2,1,11,-3,5,i,5,·,
CC(C)(CCl)C(=O)Nc1ccnc(-c2ccncc2)n1,-1,-3,2,-10,0,·,-3,-2,
CC1(C)C(=O)NC(=O)N1Cc1ccccc1,1,2,·,-13,·,i,10,-7,
CCOC(=O)c1c(OCCO)nn(-c2ccccc2)c1N,1,7,71,-3,7,i,6,·,eIF4H FP inh retest=5;PABP FP inh retest=30
CN(C)c1ccc(/C=N/N(CCC#N)C2=NS(=O)(=O)c3ccccc32)cc1,-24,-1,?,-8,?,i,6,-8,
O=C(NCc1ccccn1)c1cccc(S(=O)(=O)NCc2ccccc2)c1,3,1,·,-6,·,i,-7,-22,
O=C(Nc1scc(-c2ccc(Br)cc2)c1C(=O)O)c1ccccc1F,-3,-3,·,24,·,i,-13,-4,
O=C(O)c1cc(O)c2c(c1)C(=O)c1cc(O)cc(O)c1C2=O,22,11,76*,-7,90*,i,·,4,
CNC(=O)Nc1cc(C(F)(F)F)cc(C(F)(F)F)c1,-5,0,-4,7,-11,i,-14,1,
COc1cc(=O)[nH]c(SCC(=O)Nc2ccc3ccccc3c2)n1,-2,-3,24,-3,2,·,9,-8,
O=C(c1cc(-c2cccs2)nc2ccccc12)N1CCN(S(=O)(=O)c2cccc(F)c2)CC1,-3,-8,-15,-7,-6,i,·,-17,
O=C(NNCc1ccc(O)cc1)c1ccccc1Cl,2,5,-8,-24,-18,i,-23,-11,
C=CCC[C@@H](Cc1ccc(F)cc1)C(=O)OC[C@H](C)NC(=O)[C@@H](CC=C)CC(=O)N[C@@H](CO)Cc1ccccc1,0,-4,·,10,·,·,-87,-15,
CCNC(=O)C1(C)CCN(C(=O)c2ccc(C)c(F)c2)C1 (centres undefined),4,2,·,·,·,·,0,-4,
O=C(Cn1ncc2c([nH]c3ccccc32)c1=O)NCCCN1CCN(c2ccccc2)CC1,-1,-2,2,-3,-1,i,4,-2,
Cc1ccc(O)c(NC(=O)c2noc3c2CCCCC3)c1,5,1,-7,-4,1,i,-25,20,
COCCCNC(=O)c1cccc2c(-c3ccnn3C)coc12,3,1,·,·,·,·,-7,-2,
COc1ccc(-c2ccc(C(=O)Nc3ccc(NC(C)=O)cc3)c3occc23)c(C)c1,5,-4,·,·,·,·,-9,-19,

# Arranged by heavy-atom count (falling): some entries from above.
SMILES,MT1-MMP act inh,MT1-MMP act inh RFP,PABP FP inh,CSC inhib,eIF4H FP inh,Rce1 inhib,HIV Env fusion,UUG fidelity,others
O=C(c1cc(-c2cccs2)nc2ccccc12)N1CCN(S(=O)(=O)c2cccc(F)c2)CC1,-3,-8,-15,-7,-6,i,·,-17,
COc1ccc(-c2ccc(C(=O)Nc3ccc(NC(C)=O)cc3)c3occc23)c(C)c1,5,-4,·,·,·,·,-9,-19,
COCCCNC(=O)c1cccc2c(-c3ccnn3C)coc12,3,1,·,·,·,·,-7,-2,
CCNC(=O)C1(C)CCN(C(=O)c2ccc(C)c(F)c2)C1 (centres undefined),4,2,·,·,·,·,0,-4,
CNC(=O)Nc1cc(C(F)(F)F)cc(C(F)(F)F)c1,-5,0,-4,7,-11,i,-14,1,

# The order is random; 3% or so of the library scored in one or more.
